High-throughput results deposited in PubChem by National Center for Advancing Translational Sciences (NCATS).
Vaccinia Venus = qHTS for Stage-Specific Inhibitors of Vaccinia Orthopoxvirus: Venus Reporter Primary qHTS; AID 720580, 2013; Vaccinia virus Venus reporter expression, fluorescence; Potency, µM (series often up to 36.5 µM), without a hit: at the highest dose activity change, negative = inhibition, usual class: inhibitors; 330,000 tested, 0.46% active; active means well fitted inhibition curve with a large enough effect; inconclusive means small, poorly fitted or top-dose-only effect; inactive means no such curve, though single readings can be large or run the other way; tested in A549 cells; also: nearly all actives have a fitted effect of over 30% in size; inactives centre near -10
VACV mCherry inh = qHTS for Stage-Specific Inhibitors of Vaccinia Orthopoxvirus: mCherry Reporter Primary qHTS | Vaccinia virus mCherry reporter infection, fluorescence; about a quarter of the inactives have no number | Potency, µM (titrated, usually from 36.5 µM), for inactives: at the top dose activity change, negative = inhibition, most hits filed as inhibitors | 310,000 tested, 0.63% active | AID 720579, 2013; active = well fitted inhibition curve with a large enough effect; inconclusive = small, poorly fitted or top-dose-only effect; inactive = no such curve, though single readings can be large or run the other way; tested in A549 cells; also: nearly all actives have a fitted effect of over 35% in size; inactives centre near -10
* = called active by the depositor; i = inactive; u = inconclusive; x = not tested or not shown; [ ] = remark or other dose. % is scaled to controls: 0 for no effect and ±100 for the full control effect; potency is read from the fitted curve at half-maximal effect.

1: COc1ccc(C(=O)Nc2cc3c(cc2C#N)OCO3)cc1S(=O)(=O)N1CCN(C)CC1
2: Cc1ccc(Cc2c(-c3ccc(Cl)cc3)nc3c(C)cc(Br)cn23)cc1
3: Cc1ccc(Cl)cc1N1CCN(C(=O)COc2cc(=O)n(C)c3ccccc23)CC1
4: CC1=CC(C)(C)C(C(=O)O)C(C(=O)O)C1 (centres undefined)
5: CCCCCn1c(=O)[nH]c2cc(C(=O)NCCCN3CCCCC3CC)ccc2c1=O (centres undefined)
6: CCOc1cccc(CN2CCN(Cc3ccc(C)o3)C(CCO)C2)c1O (centres undefined)
7: Cc1c([N+](=O)[O-])c([N+](=O)[O-])nn1CC(=O)N1CCCCC1
8: CC(C)[C@H](NC(=O)c1ccccc1F)C(=O)OCC(=O)NC(=O)NC1CCCCC1
Compound	1	2	3	4	5	6	7	8
Vaccinia Venus	-4.2%	-27.0%	-16.8%	-3.8%	-11.7%	-6.5%	-15.1%	-15.7%
VACV mCherry inh	0.2%	-9.2%	-1.7%	-7.1%	i	-24.0%	i	-4.2%

9: COc1ccc(C2CC(=O)C(C=NCCN3CCN(C(=S)Nc4ccccc4)CC3)=C(O)C2)cc1 (centres undefined)
10: C=CCN1C[C@@H](C)N(C(c2ccc(C(=O)N(CC)CC)cc2)c2cccc(OC)c2)C[C@@H]1C (some centres undefined)
11: N#CC(CC(=O)c1ccc(Cl)cc1)c1ccccc1 (centres undefined)
12: C#CCn1cc(/C=C2\NC(=O)NC2=O)c2ccccc21
13: CCOCCc1c(O)nc(SC)[nH]c1=O
14: COc1ccc(OCCNS(=O)(=O)c2cccc([N+](=O)[O-])c2)cc1
15: COc1ccc(Cl)c(S(=O)(=O)N2CCCC2)c1
16: Cc1nn(-c2ccccc2)c2nc(N)c(C#N)c(-c3ccc(O)c(O)c3)c12
Compound	9	10	11	12	13	14	15	16
Vaccinia Venus	0.0%	-18.2%	-5.3%	-20.2%	-2.0%	-1.2%	0.0%	u
VACV mCherry inh	-0.6%	-5.7%	i	4.47µM*	i	0.8%	-7.9%	u

17: CCN(CC)S(=O)(=O)c1ccc(-c2cn3ccccc3n2)cc1
18: COc1ccc(S(=O)(=O)N2CCOC2CNC(=O)C(=O)NCc2cccnc2)cc1C (centres undefined)
19: COC(=O)CC1Oc2ccc(C)cc2-n2cc(-c3ccc(F)cc3)nc21 (centres undefined)
20: COc1ccc(OCCOc2ccc(S(=O)(=O)N3CCCC3)cc2C(N)=O)cc1
21: O=C(Nc1cccnc1)c1cc(-c2ccc(Cl)cc2)on1
22: COc1cc(CNCCCN2CCOCC2)c(Br)cc1OCC(=O)Nc1ccccc1C
23: Oc1cccc(-c2nc(-c3cccs3)c(-c3cccs3)[nH]2)c1
24: CC(C)COc1ccc(C(=O)OCC(=O)NCCC2=CCCCC2)cc1
Compound	17	18	19	20	21	22	23	24
Vaccinia Venus	-11.2%	-9.6%	-0.3%	-19.5%	6.5%	-22.4%	-18.3%	-8.6%
VACV mCherry inh	9.4%	i	i	-23.3%	-8.6%	i	-16.0%	-14.6%

25: CCOc1c(Cl)cc(C(=O)Nc2cccc(C(=O)O)c2)cc1Cl
26: Cc1cc(=O)n2nc(N3CCCC(C(=O)N4CCN(C)CC4)C3)sc2n1 (centres undefined)
27: CC(C)(C)S(=O)(=O)c1cnc2c(S(=O)(=O)c3ccccc3)cnn2c1N
28: O=C(Nc1nnc(CSCc2ccc(F)cc2)s1)c1ccc([N+](=O)[O-])cc1
29: Cc1cc(SCC(=O)NC2CCCC2)nc2ccccc12
30: O=C(N/N=C/C1C(c2ccccc2)C1(Cl)Cl)c1cccc(Cl)c1 (centres undefined)
31: Cn1c(CC(=O)Nc2ccc(F)cc2)nnc1SCC(=O)Nc1nncs1
32: COc1ccc(Cl)cc1NC(=O)N1CCN(Cc2cc(=O)n3nc(-c4ccccc4)sc3n2)CC1
Compound	25	26	27	28	29	30	31	32
Vaccinia Venus	5.2%	-5.0%	-8.0%	-13.6%	5.8%	-25.0%	7.9%	-12.2%
VACV mCherry inh	i	-20.4%	i	i	-10.5%	-19.5%	-9.5%	2.2%

Some of these compounds in order of heavy-atom count, lowest first:
30: O=C(N/N=C/C1C(c2ccccc2)C1(Cl)Cl)c1cccc(Cl)c1 (centres undefined)
27: CC(C)(C)S(=O)(=O)c1cnc2c(S(=O)(=O)c3ccccc3)cnn2c1N
31: Cn1c(CC(=O)Nc2ccc(F)cc2)nnc1SCC(=O)Nc1nncs1
Compound	30	27	31
Vaccinia Venus	-25.0%	-8.0%	7.9%
VACV mCherry inh	-19.5%	i	-9.5%

The listing picks up, repeating the 4 entries before the break.
29: Cc1cc(SCC(=O)NC2CCCC2)nc2ccccc12
30: O=C(N/N=C/C1C(c2ccccc2)C1(Cl)Cl)c1cccc(Cl)c1 (centres undefined)
31: Cn1c(CC(=O)Nc2ccc(F)cc2)nnc1SCC(=O)Nc1nncs1
32: COc1ccc(Cl)cc1NC(=O)N1CCN(Cc2cc(=O)n3nc(-c4ccccc4)sc3n2)CC1
33: CC(=O)N1CCOCCOCCN(C(C)=O)CCOCCOCC1
34: Cn1c(=O)[nH]c(=O)c2cc(C(=O)c3cc(F)ccc3O)cnc21
35: COc1ccc(NC(=O)C2CCCN2S(=O)(=O)c2ccc3c(c2)CCCC(=O)N3)cc1Cl (centres undefined)
36: CC1=NN(c2ccc(C)cc2)C(=O)/C1=C\c1ccc(Br)s1
37: COc1cccc(Nc2nc3ccccc3n3nnnc23)c1
38: CN1/C(=C/C(=O)COC(=O)CN2C(=O)C3CC=CCC3C2=O)C(C)(C)c2ccccc21 (centres undefined)
39: Cc1ccc(C(O)c2ncc(-c3cccc(C(F)(F)F)c3)[nH]2)cc1 (centres undefined)
40: Cc1nnnn1CC(=O)Nc1cccc([N+](=O)[O-])c1
Compound	29	30	31	32	33	34	35	36	37	38	39	40
Vaccinia Venus	5.8%	-25.0%	7.9%	-12.2%	1.3%	11.8%	-15.1%	-1.5%	-3.6%	1.2%	-7.1%	-9.3%
VACV mCherry inh	-10.5%	-19.5%	-9.5%	2.2%	-14.1%	-11.3%	-13.3%	i	-9.0%	-21.7%	9.7%	i

41: Fc1ccc(N2CCN(Cc3ccc4c(c3)CN(Cc3cccn3-c3cccnc3)CCO4)CC2)cc1
42: CC1(C)CC(=O)C=C(NCc2cccc(C(F)(F)F)c2)C1
43: Cc1onc(-c2c(Cl)cccc2Cl)c1C(=O)N1CCCCC1
44: CCOC(=O)Cc1csc(NC(=O)Cc2ccc(Br)cc2)n1
45: CCOc1ccccc1NC(=O)c1nc2nc(C)cc(C(F)F)n2n1
46: O=C(COC(=O)c1ccc(Br)o1)Nc1nc2c(F)c(F)c(F)cc2s1
47: Nc1c(-c2ccccc2)nc(Cl)nc1-c1ccccc1
48: Cc1ccc(CNC(=O)N[C@@H](Cc2ccccc2)C(=O)O)cc1
Compound	41	42	43	44	45	46	47	48
Vaccinia Venus	-3.6%	-2.1%	-2.6%	12.5%	-1.3%	-3.8%[7.34 µM]	-18.8%	0.6%
VACV mCherry inh	-5.3%	-2.4%	i	-6.7%	-10.9%	-6.3%[7.34 µM]	-10.6%	-9.5%

49: COc1cc(OC)c(C(=O)Nc2cc(Cl)ccc2-n2cncn2)cc1OC
50: Cc1ccc(-n2nc(C)c3c2NC2=C(C(=O)CC(C)(C)C2)C3c2ccccc2OCC(=O)O)cc1 (centres undefined)
51: Cc1cc(=O)[nH]c(-n2nc(C)cc2C)n1
52: Cc1ccc(-n2c(C)cc(C)c(C#N)c2=O)cc1Cl
53: C=CCc1ccccc1OCC(O)CN1CCN(c2ccccc2F)CC1 (centres undefined)
54: COC(=O)C1CCN(C2=C(NS(=O)(=O)c3ccc(Cl)cc3)C(=O)c3ccccc3C2=O)CC1
55: O=C(c1cccnc1)N1C2C=CC(C2)C1(C(F)(F)F)C(F)(F)F (centres undefined)
56: CCNc1ccc(C2(O)C(=O)c3ccccc3C2=O)cc1
Compound	49	50	51	52	53	54	55	56
Vaccinia Venus	-4.7%	-12.4%	-6.0%	-1.2%	-46.7%	-3.5%	-3.8%	2.6%
VACV mCherry inh	i	-0.8%	-11.7%	-5.6%	x	u	x	-26.0%

57: CC(=O)COc1ncn(-c2ccccc2)n1
58: CCCCC(=O)OC1=C(C(=O)c2ccccc2)N(CCC)S(=O)(=O)c2ccccc21
59: COc1ccc(S(=O)(=O)N(C)CC(=O)NCc2ccccn2)cc1
60: COc1cc(/C=C/C(=O)OCC(=O)c2c(N)n(C)c(=O)n(C)c2=O)ccc1OC(F)F
61: COc1ccc(N2CCN(c3nc4ccccc4n4c(C)nnc34)CC2)cc1
62: Cc1ccc(N/C=C/C(=O)C(C)(C)C)c(O)c1
63: CCCC(=O)N1CCC1(C)C(=O)NCc1ccccc1SC (centres undefined)
64: Cc1cccc(NC(=S)N(CCN(C)C)Cc2cc3cccc(C)c3[nH]c2=O)c1
Compound	57	58	59	60	61	62	63	64
Vaccinia Venus	-11.4%	-10.4%	3.5%	-10.8%	u	u	4.4%	-10.6%
VACV mCherry inh	x	-17.4%	-4.7%	-9.1%	u	-25.4%	-10.9%	i

65: COc1ccc(C(=S)Nc2ccccc2)cc1
66: O=C1CCc2cc(S(=O)(=O)NCCc3ccc(Cl)cc3)cc3c2N1CC3
67: CCCCN(Cc1ccco1)C(=O)C1CCCN(c2ncnc3c2nc2n3CCCCC2)C1 (centres undefined)
68: CCOc1ccccc1NC(=O)C1CCN(S(=O)(=O)c2ccc3[nH]c(=O)ccc3c2)CC1
69: CCN(CC)c1nc2ccccc2nc1C(C#N)C(=O)NCCCOC (centres undefined)
70: Cc1csc2nc(COC(=O)CNC(=O)c3ccccc3Cl)cc(=O)n12
71: CCOC(=O)c1sc(N2N=C(C)/C(=C\c3ccc(OCC(=O)OC)cc3)C2=O)nc1C
72: COc1ccc(Cn2c(C(=O)O)c(CNC3CCC(C)CC3)c3ccc(C)cc32)cc1 (centres undefined)
Compound	65	66	67	68	69	70	71	72
Vaccinia Venus	-3.3%	-6.7%	-28.1%	-6.0%	-19.7%	1.8%	-3.4%	-22.2%
VACV mCherry inh	x	i	u	-0.2%	x	-5.3%	-13.3%	-11.4%

73: Cc1ccc(CN(C(=O)c2ccco2)C(C(=O)NC2CCCC2)c2ccc(N3CCOCC3)cc2)cc1 (centres undefined)
74: COc1ccc(C(=O)Nc2nnc(Cc3ccccc3)s2)c(OC)c1
75: CC1(C)CC(=O)C2=C(C1)NC(=O)CC2c1cccc(F)c1 (centres undefined)
76: COc1ccc(C2CC(c3cccs3)=NN2C(=S)Nc2ccccc2)cc1OC (centres undefined)
77: O=C(NS(=O)(=O)Oc1cccc(F)c1)OC[C@@H]1CCCN2CCCCC12 (some centres undefined)
78: OC(c1ccc(F)c(F)c1)c1nc(-c2ccccc2)cs1 (centres undefined)
79: CN(Cc1ccccc1)C(=O)c1cc(S(=O)(=O)N2CCOCC2)cn1C
80: S=C1NC2(CCCCC2)NC12CCCCC2
Compound	73	74	75	76	77	78	79	80
Vaccinia Venus	1.1%	-12.3%	18.0%	0.1%	-5.1%	-13.1%	-0.2%	-9.0%
VACV mCherry inh	6.9%	-10.5%	x	-13.3%	8.1%	1.6%	i	i

81: CCCCCCc1c(C)nc(-n2[nH]c(C)c(CCO)c2=O)[nH]c1=O
82: Cc1c(C(=O)O)sc(=S)n1CCOc1ccccc1
83: Cc1cnc(C(=O)OCC(=O)c2cccc3ccccc23)cn1
84: O=C(NCCN1CCN(c2cccc(Cl)c2)CC1)Nc1ccccc1C(F)(F)F
85: Cc1ccc(CNC(=O)c2cc3c(=O)n(Cc4ccco4)ccc3nc2C)cc1
86: COc1ccc(C(O)c2ncc(-c3ccccc3)[nH]2)c(OC)c1 (centres undefined)
87: O=C(Nc1nnc(-c2ccccc2)o1)C1CCCN1S(=O)(=O)c1cccs1 (centres undefined)
88: Cc1ccc(C(=O)NNC(=O)c2ccc3ccccc3c2O)cc1
89: Cc1ccc(C(C)C)c(OCC(=O)N2CCOCC2)c1
Compound	81	82	83	84	85	86	87	88	89
Vaccinia Venus	-0.7%	-5.6%	-7.4%	-11.7%	-4.9%	1.1%	1.1%	1.3%	-13.8%
VACV mCherry inh	-3.5%	i	-12.4%	-9.7%	-5.2%	44.5%[activator]	-16.2%	u	-19.6%

In another format: entries from further up.
cpd	mol	Vaccinia Venus	VACV mCherry inh
68	CCOc1ccccc1NC(=O)C1CCN(S(=O)(=O)c2ccc3[nH]c(=O)ccc3c2)CC1	-6.0%	-0.2%
69	CCN(CC)c1nc2ccccc2nc1C(C#N)C(=O)NCCCOC (centres undefined)	-19.7%	x
70	Cc1csc2nc(COC(=O)CNC(=O)c3ccccc3Cl)cc(=O)n12	1.8%	-5.3%
71	CCOC(=O)c1sc(N2N=C(C)/C(=C\c3ccc(OCC(=O)OC)cc3)C2=O)nc1C	-3.4%	-13.3%
